Cruzain Triton: blocks cruzain activity in presence of Triton detergent; P25779; purified cruzain, Z-FR-AMC fluorescence, 0.01% Triton; Potency, µM, for the others: max response, negative = inhibition, usual class: inhibitors; hit rate 0.43% among 200,000; AID 1478;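 also: plate controls were neutral wells for no effect and buffer without enzyme for full effect; nearly all actives have a fitted effect of over 40% in size; top concentration of the series not given in the record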
Target sequence (P25779 123-467 limits assumed): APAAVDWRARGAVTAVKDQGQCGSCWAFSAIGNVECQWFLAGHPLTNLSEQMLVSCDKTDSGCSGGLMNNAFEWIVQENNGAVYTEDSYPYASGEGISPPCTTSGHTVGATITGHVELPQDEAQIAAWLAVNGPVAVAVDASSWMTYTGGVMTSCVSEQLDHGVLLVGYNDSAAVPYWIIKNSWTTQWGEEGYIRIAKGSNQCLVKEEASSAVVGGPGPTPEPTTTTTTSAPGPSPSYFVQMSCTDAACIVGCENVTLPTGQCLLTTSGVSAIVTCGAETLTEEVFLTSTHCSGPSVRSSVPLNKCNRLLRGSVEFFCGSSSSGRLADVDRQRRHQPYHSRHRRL
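Z-FR-AMC hydrolysis (2 uM substrate) by cruzain (1.5 nM) monitored kinetically at ex 360/em 450 nm after 15 min room-temperature compound exposure; 0.01% Triton X-100, pH 5.5, 5 mM DTT.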
SARS PLP yeast: blocks SARS-CoV papain-like protease in a yeast assay; hit rate 0.19% among 330,000; S. cerevisiae expressing SARS-CoV PLpro, growth rescue; control for the full effect not named in the record; Potency, µM (highest dose often 32.9 µM), without a hit: at the highest dose activity, positive = growth rescue; AID 485353; active means well fitted rising curve with a large enough effect; inconclusive means small, poorly fitted or top-dose-only effect; inactive means no such curve, though single readings can be large or run the other way; also: 0% is about no effect; nearly all actives have a fitted effect of over 55% in size; growth read by luminescence after 48 h
MARV entry inh: Marburg virus entry inhibition | Marburg virus pseudotyped entry inhibition, cell reporter; control for the full effect not named in the record; about a third of the inactives were read at about 46 µM | Potency, µM (series often up to 37.8 µM), inactives show at the top dose activity change, negative = inhibition, most hits filed as inhibitors | hit rate 1.8% among 300,000 | AID 540276; active = well fitted inhibition curve with a large enough effect; inconclusive = small, poorly fitted or top-dose-only effect, or effect the other way; inactive = flat fitted curve, though single readings scatter; tested in HEK293 cells; about a fifth of its hits are not listed in these tables; also: % is scaled to controls: 0 for no effect and ±100 for the full control effect; luciferase read-out
NS1 inh: blocks influenza NS1 protein function | Potency, µM (top dose mostly 46.1 µM), for inactives: at the highest dose activity, positive = more growth | AID 2326 | S. cerevisiae slowed by influenza A NS1, growth recovery by OD600 | hit rate 0.4% among 270,000; active means well fitted rising curve with a large enough effect; inconclusive means small, poorly fitted or top-dose-only effect; inactive means no such curve, though single readings can be large or run the other way; also: nearly all actives have a fitted effect of over 50% in size
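OD600 was taken as the measure of yeast growth restored by compound in an NS1-expressing S. cerevisiae strain. Cells had been washed out of glucose medium and diluted 1:100 into galactose -URA medium, pH 6.0.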
RE007 growth inh: less growth of the S. pombe RE007 Vpr strain | S. pombe RE007 Vpr strain, BacTiter-Glo ATP luminescence, 24 h; control for the full effect not named in the record | Potency, µM (doses to about 92.2 µM), without a hit: at the highest dose activity change, negative = less growth | hit rate 0.21% among 360,000 | AID 651644; active = well fitted falling curve with a large enough effect; inconclusive = small, poorly fitted or top-dose-only effect; inactive = no such curve, though single readings can be large or run the other way;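 also: % is scaled to controls: 0 for no effect and ±100 for the full control effect; nearly all actives have a fitted effect of over 50% in size; the assay follows cell death caused by Vpr and the record does not say whether a fall means rescue or toxicity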
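Fission yeast strain RE007, carrying one chromosomally integrated HIV-1 vpr copy, was seeded at OD 0.01 in PMG+AL medium with 23 nL pinned compound. After 24 h at 30 °C and 99% humidity, viability was read by BacTiter-Glo luminescence.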
Cruzain noTriton: blocks cruzain activity in detergent-free assay. hit rate 2.3% among 200,000. Potency, µM, for inactives: max response, negative = inhibition, most hits filed as inhibitors. purified cruzain, Z-FR-AMC fluorescence, no detergent. AID 1476. P25779;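 also: plate controls were enzyme without inhibitor for no effect and buffer without enzyme for full effect; nearly all actives have a fitted effect of over 40% in size; top concentration of the series not given in the record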
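Detergent-free condition (0.00005% Triton X-100) in acetate buffer pH 5.5 with DTT. 1.5 nM enzyme and compound were pre-mixed 15 min, then 2 uM Z-FR-AMC substrate added; reaction progress from fluorescence change between first and third reads (60 s).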
LASV entry inh: blocks Lassa virus binding to or entry into cells; Lassa virus pseudotype entry inhibition, cell reporter; control for the full effect not named in the record; Potency, µM (highest dose often 37.9 µM), for inactives: at the highest dose activity change, negative = inhibition, hits mostly inhibitors; hit rate 1.2% among 300,000; active means well fitted inhibition curve with a large enough effect; inconclusive means small, poorly fitted or top-dose-only effect, or effect the other way; inactive means flat fitted curve, though single readings scatter; tested in HEK293 cells; also: % is scaled to controls: 0 for no effect and ±100 for the full control effect; nearly all actives have a fitted effect of over 50% in size; luciferase read-out
StopGo reporter: FMDV 2A StopGo reporter, luciferase signal; human cells with a luciferase reporter of 2A StopGo recoding; control for the full effect not named in the record; Potency, µM (series often up to 57.9 µM), without a hit: top-dose signal change, negative = less light; hit rate 1.2% among 410,000; AID 1159524; active = well fitted falling curve with a large enough effect; inconclusive = small, poorly fitted or top-dose-only effect; inactive = no such curve, though single readings can be large or run the other way; tested in HEK293T cells; also: % is scaled to controls: 0 for no effect and ±100 for the full control effect; nearly all actives have a fitted effect of over 45% in size; luciferase light after 4 h
Starred values were filed as active, the others as inactive; & = joins results of further samples; [ ] = remark or other dose. Unless noted, calls follow the shape of the dose curve; as a rule, active = well fitted curve in the direction sought with a large enough effect; inconclusive = small, poorly fitted or top-dose-only effect, or another doubt; inactive = no such curve, though single readings can be large; an effect the other way counts as inactive or inconclusive. Potency is read from the fitted curve at half-maximal effect. Random draw from the library. About 4.6% of those tested had a hit in this group.

What do the screens show for `COc1ccc(/C=C2\C(=O)OCc3cc(OC)c(OC)cc32)cc1OC`?
Cruzain Triton: -2.8%; SARS PLP yeast: 5%; MARV entry inh: inconclusive; NS1 inh: -18%; RE007 growth inh: 27%; Cruzain noTriton: 13%; LASV entry inh: inconclusive; StopGo reporter: -14%

What do the screens show for `O=C(O)C1=C[C@H](c2cccs2)C[C@H](OCc2ccc(CO)cc2)O1`?
SARS PLP yeast: -5%; NS1 inh: -1%; RE007 growth inh: -3%; StopGo reporter: 6%

Results for COc1ccc(N(C)S(=O)(=O)c2cccc(C(=O)N3CCN(S(=O)(=O)c4ccc(C)cc4)CC3)c2)cc1 ?
SARS PLP yeast: 4%; MARV entry inh: inconclusive; NS1 inh: 11µM*; RE007 growth inh: 11%; LASV entry inh: inconclusive; StopGo reporter: inconclusive

Results for Cc1ccc(S(=O)(=O)c2cnc3cc(C)nn3c2N)cc1 ?
SARS PLP yeast: 2%; MARV entry inh: 13%[46.1 µM]; RE007 growth inh: 10%; LASV entry inh: 2%; StopGo reporter: -8%

How did CCOC(=O)N1CCC(NCCNC(=O)c2ccccc2)CC1 do in these assays?
Cruzain Triton: 6.4%; SARS PLP yeast: 1%&2%; MARV entry inh: -13%&-13%; NS1 inh: -1%; RE007 growth inh: 5%&0%; Cruzain noTriton: 0%; LASV entry inh: 8%; StopGo reporter: 10%&11%

How did CCOc1ccc(CNC(=O)CCCn2nc(C)c3c(C)n(-c4ccc(C)cc4)nc3c2=O)cc1 do in these assays?
Cruzain Triton: 1.7%; SARS PLP yeast: 13%; NS1 inh: 12%; RE007 growth inh: -21%; Cruzain noTriton: -3%; LASV entry inh: 1%[46.1 µM]; StopGo reporter: inconclusive

Results for COc1cc(OC)cc(C(=O)NCCS(=O)(=O)N2CCN(Cc3ccccc3)CC2)c1 ?
SARS PLP yeast: 1%; MARV entry inh: 2%[46.1 µM]; RE007 growth inh: -11%; LASV entry inh: 1%; StopGo reporter: -17%

What do the screens show for `CCCC(C(=O)NCc1ccco1)N(C(=O)CNS(=O)(=O)c1ccccc1)c1ccccc1OC` (stereo not drawn)?
Cruzain Triton: -2.1%; SARS PLP yeast: 6%; MARV entry inh: inconclusive; NS1 inh: -49%; RE007 growth inh: 3%; Cruzain noTriton: -8%; LASV entry inh: inconclusive; StopGo reporter: 46%[activator]

How did NC(=O)c1ccc2c(c1)OCCO2 do in these assays?
Cruzain Triton: -0.6%; SARS PLP yeast: 1%; MARV entry inh: 4%; NS1 inh: -11%; RE007 growth inh: -9%; Cruzain noTriton: -2%; LASV entry inh: 5%; StopGo reporter: 0%

What do the screens show for `CCCCCC(=O)Nc1cccc(C2=NOC3(C2)C[C@H](C(N)=O)N(C(=O)c2ccccc2)C3)c1` (stereo partly drawn)?
SARS PLP yeast: -4%; NS1 inh: 6%; RE007 growth inh: 0%; StopGo reporter: -17%

What do the screens show for `COc1ccc(OC(=O)c2cccc([N+](=O)[O-])c2)c(C(=O)/C=C/c2cccs2)c1`?
Cruzain Triton: -6.4%; SARS PLP yeast: -6%; MARV entry inh: -10%[46.1 µM]; NS1 inh: 8%; RE007 growth inh: -2%; Cruzain noTriton: -2%; LASV entry inh: -5%; StopGo reporter: -21%

Results for O=C(NCc1ccc(Cl)cc1)C1CCN(S(=O)(=O)c2ccc(N3CCCC3=O)cc2)CC1 ?
SARS PLP yeast: inconclusive; NS1 inh: 12%; RE007 growth inh: -1%; StopGo reporter: inconclusive

Results for O=C(CN1CCN(Cc2ccc3c(c2)OCO3)CC1)Nc1ccc2c(c1)OCCO2 ?
Cruzain Triton: 4.9%; SARS PLP yeast: 4%; MARV entry inh: 16%; NS1 inh: -2%; RE007 growth inh: 22%; Cruzain noTriton: -7%; LASV entry inh: 10%; StopGo reporter: 2%

How did O=C(CN1C(=O)C(=O)N(Cc2ccco2)C1=O)Nc1ccccc1 do in these assays?
SARS PLP yeast: -4%; MARV entry inh: 0%; RE007 growth inh: 3%; LASV entry inh: 13%; StopGo reporter: -4%

How did c1csc(-c2nc3ccccc3[nH]2)c1 do in these assays?
Cruzain Triton: -4.6%; SARS PLP yeast: -49%; MARV entry inh: -6%; NS1 inh: -37%; RE007 growth inh: -8%; Cruzain noTriton: -5%; LASV entry inh: -9%; StopGo reporter: 35%[activator]

How did COCCn1c(=O)c2ccccc2c2ccccc2c1=O do in these assays?
SARS PLP yeast: 2%; MARV entry inh: inconclusive; NS1 inh: 0%; RE007 growth inh: 10%; LASV entry inh: -13%[46.1 µM]; StopGo reporter: -7%

What do the screens show for `COc1ccc(CCNC(=O)c2cc(C(=O)c3cc(C)ccc3O)cn(CCc3ccc(OC)cc3)c2=O)cc1`?
Cruzain Triton: -4.0%; SARS PLP yeast: 6%; MARV entry inh: inconclusive; NS1 inh: inconclusive; RE007 growth inh: 4%; Cruzain noTriton: inconclusive; LASV entry inh: 2.8µM*; StopGo reporter: 8%

How did Cc1cc(C(=O)CSc2nnc3c(Cl)cc(Cl)cn23)c(C)n1C do in these assays?
Cruzain Triton: 6.3%; SARS PLP yeast: 2%; MARV entry inh: -6%; NS1 inh: 8%; RE007 growth inh: -8%; Cruzain noTriton: -7%; LASV entry inh: 4%; StopGo reporter: -15%

How did CC(C)(C)OC(=O)NCCCC[C@@H](C(=O)N1CCN(C(=O)OC(C)(C)C)CC1)n1cc(CCC(=O)O)nn1 do in these assays?
SARS PLP yeast: 1%; NS1 inh: 4%; RE007 growth inh: 2%; StopGo reporter: -5%

What do the screens show for `Cc1ccc(C(=O)N2CCCC(C(F)(F)F)C2)cc1S(=O)(=O)N1CCOCC1` (stereo not drawn)?
SARS PLP yeast: 0%; MARV entry inh: inconclusive; RE007 growth inh: -4%; LASV entry inh: 21%; StopGo reporter: -1%

Results for CSc1nnc(-c2cnccn2)n1C ?
Cruzain Triton: -0.8%; SARS PLP yeast: 13%; MARV entry inh: 3%; NS1 inh: 3%; RE007 growth inh: 8%; Cruzain noTriton: 1%; LASV entry inh: 0%; StopGo reporter: 16%

How did CCOC(=O)c1ccc(N2CCOCC2)c(NC(=O)c2nccnc2C(=O)O)c1 do in these assays?
SARS PLP yeast: -7%; NS1 inh: 9%; RE007 growth inh: -5%; StopGo reporter: 8%

What do the screens show for `O=C(CCc1ccccc1)Nc1ccc(F)c([N+](=O)[O-])c1`?
SARS PLP yeast: -5%; MARV entry inh: -10%[46.1 µM]; RE007 growth inh: 3%; LASV entry inh: 13%; StopGo reporter: -9%

How did COc1cc(-c2nc(-c3cccnc3)no2)cc(OC)c1OC do in these assays?
Cruzain Triton: -3.3%; SARS PLP yeast: 19%; MARV entry inh: -3%; NS1 inh: 5%; RE007 growth inh: 4%; Cruzain noTriton: -3%; LASV entry inh: 0%; StopGo reporter: -10%

Results for CCOC(=O)c1c(NC(=O)COC(=O)c2ccc([N+](=O)[O-])cc2)sc(C(=O)N(C)C)c1C ?
SARS PLP yeast: -1%; MARV entry inh: -15%; RE007 growth inh: -17%; LASV entry inh: 9%; StopGo reporter: -20%

Results for COc1ccc(OC)c(/C=C/C(=O)N2CCN(S(=O)(=O)c3ccc(C)cc3C)CC2)c1 ?
SARS PLP yeast: 7%; MARV entry inh: inconclusive; RE007 growth inh: -25%; LASV entry inh: inconclusive; StopGo reporter: -19%

Results for COC(=O)C1CCN(c2ccc([N+](=O)[O-])cc2[N+](=O)[O-])CC1 ?
SARS PLP yeast: 5%; MARV entry inh: 20%; NS1 inh: -5%; RE007 growth inh: 8%; LASV entry inh: 0%; StopGo reporter: -12%

How did Cc1ccc2c(CNC3CCCCC3)c(C(=O)O)n(Cc3ccc(F)cc3)c2c1 do in these assays?
Cruzain Triton: 0.4%; Cruzain noTriton: 0%; LASV entry inh: 5%[46.1 µM]; StopGo reporter: -18%

Results for Cc1ccc(NC(=O)CSC2=NCCN2)cc1 ?
Cruzain Triton: 0.7%; SARS PLP yeast: -24%; MARV entry inh: inconclusive; NS1 inh: -2%; RE007 growth inh: -10%; Cruzain noTriton: 3%; LASV entry inh: inconclusive; StopGo reporter: inconclusive

How did Cc1onc(-c2ccccc2Cl)c1C(=O)N1CCC(C)CC1 do in these assays?
SARS PLP yeast: 0%; MARV entry inh: 1%[46.1 µM]; NS1 inh: 20%; RE007 growth inh: 10%; LASV entry inh: -15%; StopGo reporter: -2%

Results for CC(=O)NN1C(=O)c2ccccc2NC1c1ccc(N(C)C)cc1 (stereo not drawn) ?
SARS PLP yeast: -1%; NS1 inh: -6%; RE007 growth inh: 16%; StopGo reporter: 26%

Results for Cc1ccc2nc(-c3ccc(NC(=O)CNC4CC4)cc3)sc2c1 ?
SARS PLP yeast: -15%; NS1 inh: 9%; RE007 growth inh: -4%; StopGo reporter: 30%

Results for c1ccc(-c2ccccc2OCCCCn2ccnc2)cc1 ?
SARS PLP yeast: 2%; MARV entry inh: inconclusive; NS1 inh: -34%; RE007 growth inh: -8%; LASV entry inh: -14%; StopGo reporter: -9%

What do the screens show for `O=C(COC(=O)Cn1nnc(-c2ccccc2)n1)Nc1ccccc1Br`?
SARS PLP yeast: 0%; MARV entry inh: 10%[46.1 µM]; RE007 growth inh: 3%; LASV entry inh: 24%[46.1 µM]; StopGo reporter: 7%

Results for COc1ccc(Oc2coc3cc(OC(=O)c4cccs4)ccc3c2=O)cc1 ?
Cruzain Triton: -0.6%; SARS PLP yeast: 1%; MARV entry inh: inconclusive; NS1 inh: -7%; RE007 growth inh: -9%; Cruzain noTriton: -27%; LASV entry inh: -3%; StopGo reporter: 2%

What do the screens show for `C=CCn1c(O)c(N=NC(=O)CNC(=O)Cc2ccccc2)c2ccccc21`?
SARS PLP yeast: 8%; MARV entry inh: 1%[46.1 µM]; NS1 inh: 8%; RE007 growth inh: -9%; LASV entry inh: -21%[46.1 µM]; StopGo reporter: 9%

How did COc1ccc(-c2nc(N3CCCC3)[nH]c(=O)c2C#N)cc1 do in these assays?
Cruzain Triton: -7.7%; SARS PLP yeast: 1%; MARV entry inh: -8%; NS1 inh: -3%; RE007 growth inh: 15%; Cruzain noTriton: -12%; LASV entry inh: 0%; StopGo reporter: 3%

What do the screens show for `Cc1c(C(=O)Nc2ccccc2N2CCOCC2)sc2nc3n(c(=O)c12)CCC3`?
Cruzain Triton: 5.0%; SARS PLP yeast: 1%; MARV entry inh: 2%; NS1 inh: -5%; Cruzain noTriton: -4%

Assay outcomes from PubChem BioAssay.
